Mtb betalactam: beta-lactam sensitization of Mtb H37Rv; M. tuberculosis H37Rv growth with meropenem, percent inhibition; hits of this screen are not shown here; inhibition, % at 25 µM; actives 0.27% (n = 330,000); AID 434955;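 active = about 74% or more and at least 40 points above the plate without the antibiotic, then above 30% in a dose series; inconclusive = first-round hits that could not be retested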;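 also: growth measured after seven days incubation then overnight dye step; 0% = bacteria only wells and 100% = bacteria with antibiotic; twin plates without the antibiotic show which effects depend on it; some results filed as inactive read as strong as hits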
Arbovirus inh: blocks arbovirus infection. AID 1251. arbovirus infection cell-based antiviral screen. inhibition, % at 10 µM. actives 0.37% (n = 200,000);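 active = inhibition from about 30%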;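 also: bluetongue infection of BSR cells; cell survival read as ATP light after 72 h; 0% = infected wells without compound and 100% = uninfected wells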
RecA intein inh: blocks M. tuberculosis RecA intein splicing; P9WHJ3; cell-free RecA intein splicing, fluorescence; inhibition, %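 (about 9 µM by stock and volumes)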; actives 0.75% (n = 290,000); in the data active = inhibition above about 30%; inconclusive = no clear call, values can overlap the other calls;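 also: 0% = vehicle wells and 100% = reference inhibitor control wells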
Target sequence (P9WHJ3 whole entry, looked up): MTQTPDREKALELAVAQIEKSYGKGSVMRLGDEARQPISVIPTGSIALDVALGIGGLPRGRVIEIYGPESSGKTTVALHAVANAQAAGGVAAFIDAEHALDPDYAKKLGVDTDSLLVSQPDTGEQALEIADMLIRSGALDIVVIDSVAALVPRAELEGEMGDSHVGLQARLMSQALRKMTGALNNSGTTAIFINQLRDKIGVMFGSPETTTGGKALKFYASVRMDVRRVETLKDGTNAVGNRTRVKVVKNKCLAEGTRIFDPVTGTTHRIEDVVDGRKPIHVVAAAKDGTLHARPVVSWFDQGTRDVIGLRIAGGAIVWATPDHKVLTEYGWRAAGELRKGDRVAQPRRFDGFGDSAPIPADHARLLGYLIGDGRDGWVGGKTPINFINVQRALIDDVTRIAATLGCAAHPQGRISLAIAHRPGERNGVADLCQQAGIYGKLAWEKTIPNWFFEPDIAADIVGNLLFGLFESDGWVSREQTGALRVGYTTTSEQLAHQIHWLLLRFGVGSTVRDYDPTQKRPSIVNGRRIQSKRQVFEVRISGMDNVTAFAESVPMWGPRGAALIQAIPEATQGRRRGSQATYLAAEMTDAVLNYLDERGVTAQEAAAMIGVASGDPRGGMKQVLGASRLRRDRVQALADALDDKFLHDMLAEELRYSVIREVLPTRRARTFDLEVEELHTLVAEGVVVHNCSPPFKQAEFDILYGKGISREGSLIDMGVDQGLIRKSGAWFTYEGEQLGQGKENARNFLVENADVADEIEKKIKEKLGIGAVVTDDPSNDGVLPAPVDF
YopH inh: YopH (Yersinia) phosphatase inhibition | inhibition, %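 (about 10 µM by stock and volumes)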 | actives 0.16% (n = 140,000) | fluorescence Ex485/Em525;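 active = inhibition of 50% or more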;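 also: controls were vehicle for no effect and minimum signal wells for full effect; inactives centre near -20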
Mtb growth: M. tuberculosis H37Rv growth inhibitors, H37Rv strain (AID 1626); inhibition, % at 10 µM; hits with a dose series show IC50 in µM; M. tuberculosis H37Rv growth inhibition; higher % means a stronger effect; actives 0.95% (n = 220,000);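 active = confirmed in a dose series; inconclusive = inhibition above 80% but not taken into the dose series; inactive = below 80% or under 30% at every dose of the series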;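 also: bacteria incubated seven days before Alamar blue readout; 0% = bacteria only wells and 100% = bacteria with antibiotic wells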
Arbovirus inh repeat: recorded beside Arbovirus inh, whose call it bears; inhibition, %; measured here: 10K subset replicate screen; many hits read low in the repeat;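 first of two repeat runs on a subset; 0% = infected and 100% = uninfected wells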
* hit, by the source's call; ? = inconclusive; . = not tested or not shown. This is a subset. The share of hits here may be higher or lower than overall.

A first look (three entries):
SMILES	Mtb betalactam	Arbovirus inh	RecA intein inh	YopH inh	Mtb growth	others
O=C(O)C(Oc1ccc2cc(-c3ccc(Cl)cc3)c(=O)oc2c1)c1ccccc1 (centres undefined)	-6	.	-13	.	.
CNc1oc(-c2ccc(Cl)cc2)nc1C#N	8	2	-0.2	-22	5%
Cc1ccccc1C(=O)NC(NC(=O)c1ccccc1C)c1cccc([N+](=O)[O-])c1	1	0	-1.9	-41	1%

The list itself (from the top)
SMILES	Mtb betalactam	Arbovirus inh	RecA intein inh	YopH inh	Mtb growth	others
O=C(O)C(Oc1ccc2cc(-c3ccc(Cl)cc3)c(=O)oc2c1)c1ccccc1 (centres undefined)	-6	.	-13	.	.
CNc1oc(-c2ccc(Cl)cc2)nc1C#N	8	2	-0.2	-22	5%
Cc1ccccc1C(=O)NC(NC(=O)c1ccccc1C)c1cccc([N+](=O)[O-])c1	1	0	-1.9	-41	1%
COCCNC(=S)Nc1cccc2cnccc12	4	2	0.5	.	6%
Cc1ccccc1S(=O)(=O)Cc1ccc(C(=O)NC2CCCCC2C)o1 (centres undefined)	6	.	1.4	.	.
CCCc1nnc(SCC(=O)N2CCCC2)n1Cc1ccco1	-5	8	0.3	.	3%
CNC(=S)N(CCc1c(C)[nH]c2ccccc12)Cc1cccnc1	1	.	-0.7	.	.
CN(C)CC(C)(C)CNC(C(=O)Nc1ccc(Cl)cc1C(F)(F)F)c1ccccc1 (centres undefined)	-12	-30	-1.2	.	2%
Cc1ccc(C)c(-c2cc(C(=O)NCc3cccs3)c3ccccc3n2)c1	39	0	13	-44	10%
CC(C)CCC1CC(CSC(=N)N)OC1=O (centres undefined)	55	8	-1.2	-13	-3%
OCC1(CO)COC(c2ccccc2)=N1	0	5	-0.1	.	6%
CCCNc1nc2c(c(=O)[nH]c(=O)n2C)n1CCCc1ccccc1	-2	4	-0.5	-46	10%
CC(CS(=O)(=O)c1ccc2c(c1)NC(=O)CS2)C(=O)N1CCN(c2cccc(Cl)c2)CC1 (centres undefined)	1	.	0.7	.	.
CC1=CC(c2ccccc2)n2ncnc2N1 (centres undefined)	-3	.	4.1	.	-15%
COc1ccc(NC2CCCN(C(=O)c3oc(C)cc3C)C2)cc1OC (centres undefined)	0	.	-1.5	.	.

Overlap with the part before: two compounds; new compounds follow.
SMILES	Mtb betalactam	Arbovirus inh	RecA intein inh	YopH inh	Mtb growth	others
CC1=CC(c2ccccc2)n2ncnc2N1 (centres undefined)	-3	.	4.1	.	-15%
COc1ccc(NC2CCCN(C(=O)c3oc(C)cc3C)C2)cc1OC (centres undefined)	0	.	-1.5	.	.
COCCCN1C(=O)C(=O)/C(=C(/O)c2ccc3c(c2)OCCO3)C1c1ccc(C(=O)OC)cc1 (centres undefined)	8	5	5.7	3	-10%
COc1cc(CNC(C)(C)CO)cc(Br)c1OCc1ccc(Cl)cc1	-8	-34	0.9	0	9%
CC1CN(CCOc2ccc([N+](=O)[O-])cc2)CC(C)O1 (centres undefined)	-3	10	0.9	-14	-4%
C=CCN1C(=O)C(CC(=O)Nc2ccc(OC)cc2)SC1=Nc1ccc(S(N)(=O)=O)cc1 (centres undefined)	0	-4	-0.9	.	3%
CCN(CC)S(=O)(=O)c1cccc(NC(=O)COc2ncnc3sccc23)c1	-1	5	5.4	.	3%
COc1ccc(OC)c(NC(=O)c2ccccc2OC(C)=O)c1	55	.	14	.	11%
O=C(NCCc1ccc(C(F)(F)F)cc1)C1CCC(=O)N(CCc2cccc(F)c2)C1 (centres undefined)	0	.	0.9	.	.
O=C(NCc1ccccc1)C1=C[C@H](c2ccc3c(c2)OCO3)C[C@H](OCCCCO)O1	-1	-8	1.5	.	-1%
O=C(NC1CCCc2ccccc21)C1CCCO1 (centres undefined)	-16	-2	-0.8	-36	1%
O=C1CCCN1CCCNCC(O)c1ccccc1 (centres undefined)	4	.	-2.5	.	.
CCOC(=O)Cn1nc(-c2ccccc2)c(-c2ccccc2)nc1=O	2	.	2.5	.	.
Cc1ccc(OCc2nn3c(-c4ccco4)nnc3s2)cc1	-5	0	.	-6	8%
O=C(COC(=O)CCS(=O)(=O)c1ccc(Cl)cc1)NCCc1ccccc1	2	-5	-1.9	-53	-4%
CCCCNC(=O)C1(NC(=O)Nc2ccccc2)CCCCC1	3	-1	-1.8	.	4%
Cn1cccc1C(=S)N=P(C1CCCCC1)(N1CCOCC1)N1CCOCC1	2	0	1.7	-48	-6%
Cc1cc2cc(CCNC(=O)CCCc3ccccc3)c(=O)[nH]c2cc1C	-4	.	3.4	.	.
COc1cc(C(=O)Nc2ccc(NC(=O)c3ccco3)nc2)cc(OC)c1OC	-6	7	4.8	-43	4%
COc1ccc(N2CC(NS(=O)(=O)c3cccs3)CC2=O)cc1OC (centres undefined)	4	.	-1.7	.	.
Oc1ccc(Oc2ccc3c(C(F)(F)F)cc(C(F)(F)F)nc3n2)cc1	-3	11	2.6	-6	9%
CCC(C)NC(=O)C1CCN(C(=O)COc2ccc3c4c(c(=O)oc3c2C)CCCC4)CC1 (centres undefined)	-3	.	-1.3	.	.
COc1ccc(C(=O)NCCS(=O)(=O)N2CCC3(CC2)OCCO3)cc1	3	.	1.9	.	.
Cc1sc2nc(CSc3nc4ccccc4s3)[nH]c(=O)c2c1C	-1	1	-0.8	.	3%
COc1ccccc1NC(=O)CSc1ncc(CO)n1Cc1ccc(F)cc1	5	.	3.6	.	.
CCC(O)CNC(=O)NC(=C(Cl)Cl)c1ccc(C)c(F)c1 (centres undefined)	0	1	22	-28	-5%
CC1CCCN(C(=O)C(C)Sc2nc(-c3ccccc3)cc(C(F)(F)F)n2)C1 (centres undefined)	12	-28	16	3	10%
CCc1ccc(NC(=O)COc2ccc(Br)cn2)cc1	-3	13	1.6	.	1%
COCCNC(=S)N/N=C(\C)c1ccc(Cl)s1	94	.	0.7	.	?
Cc1ccccc1Oc1ccc(S(=O)(=O)NCCC(=O)O)cc1	-30	8	-0.1	-35	-10%
CCc1ccc2c(c1)c1nnc(NN)nc1n2CC	?	-12	2.6	11	7%
O=C(NCCN1CCCC1=O)Nc1ccccc1	-3	6	-1.5	-27	-3%
Cc1ccccc1NC(=O)CSc1nnc(NC(=O)c2ccco2)s1	-21	.	0.7	.	.
C/C(CC(=O)Nc1ccc([N+](=O)[O-])cc1)=N\NC(=O)c1ccccc1[N+](=O)[O-]	4	.	1.6	.	.
COC(=O)c1c(N)sc(C(C)=O)c1C	0	1	-0.2	-46	1%	Arbovirus inh repeat=-7
CCc1cccc(CC)c1-n1c(SCC(=O)c2c(N)n(C)c(=O)n(C)c2=O)nnc1-c1cccnc1	0	-3	-1.1	-22	2%
COC(=O)c1ccc(NS(=O)(=O)NC(=O)c2c[nH]c3ccccc23)cc1	11	.	2.1	.	.
C=CCNc1ncnc2ccc(Br)cc12	5	2	.	-49	-4%	Arbovirus inh repeat=7
O=C(Cc1c[nH]c2ccccc12)NCc1ccc(Cl)cc1	4	-16	1.9	-13	6%
CC(C)CNC(=O)C(=O)NCC1OCCCN1S(=O)(=O)c1ccc2c(c1)OCCO2 (centres undefined)	-8	.	0.7	.	.
NC(=O)c1c(NC(=O)C2COc3ccccc3O2)sc2c1CCN(Cc1ccccc1)C2 (centres undefined)	15	6	-26	.	3%
O=C(/C=C/c1ccc([N+](=O)[O-])cc1)NCc1ccc2c(c1)OCO2	-4	-7	-2.1	.	-5%
Cc1ccsc1C(=O)NCCc1ccc(S(N)(=O)=O)cc1	12	.	-2.4	.	.
NS(=O)(=O)c1ccc(CCNC(=O)CSc2cccs2)cc1	12	-3	-0.8	.	-15%
COc1ccc(C(=O)NN(C)c2nc(-c3ccccc3)cc(C)c2S(C)(=O)=O)cc1	-1	0	1.9	-1	7%
Cc1ccccc1-c1n[nH]c(=S)n1/N=C/c1c(C)nn(-c2ccccc2)c1C	-2	-8	-1.8	-24	-5%
CC1Nc2ncnc(N3CCN(c4ccccn4)CC3)c2N(Cc2ccccc2)C1=O (centres undefined)	77	.	9.7	.	.

Ordered by count of non-hydrogen atoms (largest number first): part of the list above
SMILES	Mtb betalactam	Arbovirus inh	RecA intein inh	YopH inh	Mtb growth	others
COc1ccc(C(=O)NN(C)c2nc(-c3ccccc3)cc(C)c2S(C)(=O)=O)cc1	-1	0	1.9	-1	7%
C/C(CC(=O)Nc1ccc([N+](=O)[O-])cc1)=N\NC(=O)c1ccccc1[N+](=O)[O-]	4	.	1.6	.	.
Cc1ccccc1NC(=O)CSc1nnc(NC(=O)c2ccco2)s1	-21	.	0.7	.	.

(further entries)
SMILES	Mtb betalactam	Arbovirus inh	RecA intein inh	YopH inh	Mtb growth	others
CC(Sc1nnc(C(C)N(C)C)n1-c1ccc(Cl)cc1)C(=O)Nc1ccc2c(c1)OCO2 (centres undefined)	-8	-6	0.1	10	-4%
S=c1[nH]nc(-c2ccc3ncccc3c2)n1-c1ccc2c(c1)OCCO2	6	1	-0.6	.	1%
COc1ccc(CN2C(=O)CN=C2Nc2ccc(C)cc2C)cc1	-3	19	1.0	-4	1%	Arbovirus inh repeat=7
C[C@H](O)c1[nH]c2cc(F)ccc2c1[C@H](C)O	1	.	4.2	.	.
Cc1ccc(S(=O)(=O)CCc2nc3ccccc3s2)cc1	-4	-4	-1.9	0	5%
CCOC(=O)Nc1nnc(-c2cccc(OC)c2)s1	-3	1	-1.6	-5	9%
CCn1nc(NC(=O)c2cccs2)c2cc3ccccc3nc21	11	21	-53	.	8%
COc1ccc(C(C)=O)cc1COC(=O)Cn1cnc2ccccc2c1=O	-4	2	-11	-35	-8%
Cn1c(CNC(=O)c2ccccc2F)nnc1SCCOc1ccccc1	12	-6	-0.9	.	5%
COc1ccc(-n2nc(N)c3c(=O)oc(N(C)C)nc32)cc1	3	-2	-1.4	-35	1%
O=C(c1sccc1-c1ccccc1)N1CCN(S(=O)(=O)c2ccccc2F)CC1	-2	.	5.8	.	.
O=C1CN(C(=O)COC(=O)/C=C/c2ccc(OC(F)F)cc2)c2ccccc2N1	0	6	1.3	-32	5%
O=C(NC(c1ccc(Cl)cc1)c1cc(Cl)c2cccnc2c1O)c1cccnc1 (centres undefined)	10	-29	-3.6	-1	4%
Cc1ccc(C)c(NC2=NCC(=O)N2C2CCCCC2)c1	5	-3	1.8	-17	-4%
CN(C)c1oc(COc2ccccc2F)nc1C#N	0	12	-1.7	-20	-2%
O=[N+]([O-])c1ccc2c(c1)ncn2CCc1ccccc1	-8	.	1.6	.	.
COc1ccc(C(C(=O)NC2CCCC2)N(C(=O)c2csnn2)C2CC2)cc1 (centres undefined)	-10	.	-1.9	.	.
CCOC(=O)C1(Cc2ccccc2C(F)(F)F)CCN(Cc2ccc(COC)o2)CC1	2	-8	0.1	.	9%
COc1cccc(-n2c(=S)sc3c(=O)n(-c4ccccc4C)c(SCC(=O)O)nc32)c1	1	.	-19	.	.
CCCCOc1ccc(C(=O)NCC(=O)NCC(c2ccco2)N2CCCCC2)cc1 (centres undefined)	-1	.	-4.2	.	.
COc1ccc(-c2cc3ccccc3n2CC(O)CN2CCOCC2)cc1 (centres undefined)	-12	20	-0.6	-39	11%	Arbovirus inh repeat=23
CCOc1ccccc1NC=C1C(=O)OC(C)(C)OC1=O	1	6	-1.9	-20	-2%
COCCCN1CC(=O)N2C(c3cccc(OC)c3)c3[nH]c4ccccc4c3C[C@H]2C1=O (some centres undefined)	7	.	-3.0	.	.
O=C(NC1CC1)c1cccc(Nc2ccc(-c3ccc4c(c3)OCCO4)nn2)c1	85	-15	-2.6	-6	29%
O=C(c1cccc(F)c1)N1CCC2(CC1)NCCc1[nH]cnc12	3	.	-2.0	.	.
O=C(NCCCN1CCOCC1)c1ccc(S(=O)(=O)Nc2ccccc2)cc1	0	.	-1.2	.	.
COc1ccc2c(CC(=O)Nc3ccc(OC)nc3)coc2c1	-1	24	2.3	.	4%
CSCCC(NS(=O)(=O)c1ccc(Cl)cc1)C(=O)O (centres undefined)	-4	11	-2.2	.	-6%
CCc1ccccc1OCc1nc2ccc(S(=O)(=O)N3CCOCC3)cc2[nH]1	-3	-6	4.3	0	3%
O=C(O)c1ccc(N=Cc2c(O)[nH]c(=O)[nH]c2=O)cc1	1	.	1.7	.	.

Copied from the listing (6 entries):
SMILES	Mtb betalactam	Arbovirus inh	RecA intein inh	YopH inh	Mtb growth	others
O=C(c1cccc(F)c1)N1CCC2(CC1)NCCc1[nH]cnc12	3	.	-2.0	.	.
O=C(NCCCN1CCOCC1)c1ccc(S(=O)(=O)Nc2ccccc2)cc1	0	.	-1.2	.	.
COc1ccc2c(CC(=O)Nc3ccc(OC)nc3)coc2c1	-1	24	2.3	.	4%
CSCCC(NS(=O)(=O)c1ccc(Cl)cc1)C(=O)O (centres undefined)	-4	11	-2.2	.	-6%
CCc1ccccc1OCc1nc2ccc(S(=O)(=O)N3CCOCC3)cc2[nH]1	-3	-6	4.3	0	3%
O=C(O)c1ccc(N=Cc2c(O)[nH]c(=O)[nH]c2=O)cc1	1	.	1.7	.	.

Compound activity (PubChem BioAssay)
